Calb biofilm kill – mixtures killing C. albicans biofilm. 0.02% of 120,000 active. inhibition, % at 7.6 µM. C. albicans biofilm persisters + clotrimazole, fluorescence viability; primary screen in compound mixtures of four per well;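 active means inhibition above 30.3% in the primary screen of four-compound pools, then above 30% when the compound was retested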;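 further: compounds exposed to preformed 24 h biofilms for 48 h; the number belongs to the whole pool; some results filed as inactive read as strong as hits; inactives centre near 12; 0% = biofilm with clotrimazole alone and 100% = kill control; retested singly at about 60 µM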
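System: C. albicans CAF4-2 wild-type biofilms; Medium: RPMI/MOPS medium, pH 7.0; Reagent: Clotrimazole, 50 µg/mL; Times: biofilm formation 24 h, compound exposure 48 h, 37 °C; Detection: 2-h Alamar Blue fluorescence, 535/590 nm excitation/emission; Evaluation: percent inhibition of biofilm viability.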
The depositor's hits bear a star.

The opening 3 records as a preview:
Molecule	Calb biofilm kill
COC(=O)Cn1cnc2c1c(=O)n(C)c(=O)n2C	16
NC(=O)c1c(NC(=O)CSc2nc(N)cc(=O)[nH]2)sc2c1CCCC2	10
C/C=C(\C)C(=O)NCCN1C2=NC[C@@H](C)N2C[C@@H]1Cc1ccc(OC)cc1	18

All compounds of this part, previewed entries included:
Molecule	Calb biofilm kill
COC(=O)Cn1cnc2c1c(=O)n(C)c(=O)n2C	16
NC(=O)c1c(NC(=O)CSc2nc(N)cc(=O)[nH]2)sc2c1CCCC2	10
C/C=C(\C)C(=O)NCCN1C2=NC[C@@H](C)N2C[C@@H]1Cc1ccc(OC)cc1	18
CCCCC(CC)C(=O)Nc1cc([N+](=O)[O-])ccc1F (stereo not given)	6
Clc1cccc(Cl)c1Cn1nnc(N2CCCC2)n1	17
C/C(=N\Nc1ccc(S(N)(=O)=O)cc1[N+](=O)[O-])c1ccc2c(c1)OCO2	23
CC(=O)Nc1cccc2ncccc12	2
Cc1ccccc1OCC(=O)N/N=C/c1cccc(Oc2ccc([N+](=O)[O-])cc2[N+](=O)[O-])c1	18
COc1ccc(/C=C(\C#N)C(=O)OCC(=O)NCc2ccccc2)cc1	19
CCCNC(=O)/C=C/C(=O)O	10
COc1cc(CC(=O)OCn2nnc3ccccc3c2=O)cc(OC)c1OC	21
CCCOc1ncnc2c1[nH]c1ccc(OC)cc12	-1
CCCCn1c(SCC(=O)/C(C#N)=C(\C)N)nc2ccccc2c1=O	12
O=C(O)c1ccccc1C1Nc2ccccc2C(=O)N1CCCN1CCOCC1 (stereo not given)	5
CCOC(=O)CSc1nnc(-c2ccc3ncccc3c2)n1C	12
COc1ccc(C(=O)Nc2c(Cl)cc(Cl)cc2C(=O)N2CCC(C)CC2)cc1	10
Cc1ccc(OCc2n[nH]c(=S)n2-c2ccc(C)cc2)cc1	12
Cc1ccc(S(=O)(=O)N(C)C)cc1NC(=O)c1cccnc1Oc1ccccc1	28
COc1ccc(NC(=O)c2cccnc2SC)cc1OC	3
Cn1c(=O)[nH]c(NC2CCCCC2)c([N+](=O)[O-])c1=O	6
CCN1CCN(c2cc(C)nc(-c3ccccc3O)n2)CC1	13
CCOC(=O)C1=C(N)Oc2c(oc(CO)cc2=O)C1c1ccc(F)cc1 (stereo not given)	9
O=C1CC(c2cccs2)c2ccc3ccccc3c2N1 (stereo not given)	15
CC(CNS(=O)(=O)c1ccccc1)(c1ccccc1)N1CCCCC1 (stereo not given)	19
CCCNC(=O)COC(=O)c1cc(C)nc2ccccc12	2
O=C(CCCCl)NC(=S)Nc1ccc(CN2CCOCC2)cc1	6
Cc1c(NC(=O)CN2C(=O)c3ccccc3S2(=O)=O)c(=O)n(-c2ccccc2)n1C	5
COc1ccc(NC(=O)C2CC(=O)N/C(=N/N=C/c3ccccc3)S2)cc1 (stereo not given)	1
CC(=O)N1CCN(CC(=O)Nc2cccc(S(=O)(=O)N3CCCCCC3)c2)CC1	6
CCC(=O)c1ccc(OCC(=O)NCC2(N3CCCCC3)CCCCC2)cc1	-9
O=C(CCc1ccccc1)NC(=S)NCc1ccco1	13
CCOC(=O)c1ccc(NC(=O)Cn2cnc3cc(C)c(C)cc32)cc1	9
C=CCc1cccc2cc(C(=O)NNC(=O)c3ccncc3)c(=O)oc12	13
Cc1c(C(N)=O)sc2ncn(CCOc3ccccc3)c(=O)c12	9
COc1cccc(C(C(=O)NC2CCCCC2)N(CC2CCCO2)C(=O)CNC(=O)c2ccco2)c1 (stereo not given)	10
COc1ccc(/C=N/NC(=O)C(N)=O)c(OC)c1OC	6
CC(C)Cc1ccc(C(C)C(=O)Nc2ccc(O)cc2)cc1 (stereo not given)	11
Cc1cccc(-n2c(-c3ccco3)n[nH]c2=S)c1	5
Nc1ccc(Oc2ccccc2F)nc1	14
Cc1cc2cc(CNC(=S)Nc3ccc(OC(F)(F)F)cc3)ccc2[nH]1	15
C/C=C\C=C/C(=O)Nc1cccc(C2=NOC3(C2)C[C@@H](C(N)=O)N(C(=O)/C=C/C=C\C)C3)c1 (stereo not given in full)	-3
O=c1c(C(c2ccc(F)cc2)c2c(O)nc3n(c2=O)CCS3)c(O)nc2n1CCS2	26
COc1ccc(CNC(=O)c2c(C)nc3ccccn23)cc1	20
O=C(Nc1ccccc1Cl)N1CCN(C/C=C/c2ccccc2)CC1	15
Cc1ccc(C=Nc2ccccc2C(N)=O)o1	4
Cc1cc(NC(=O)CN2CCN(C)CC2)no1	4
COc1ccc(C(=O)CSc2nnc(-c3ccco3)c(-c3ccco3)n2)cc1	12
CCN(c1ccccc1)S(=O)(=O)c1ccc(OC)c(NC(=O)CNCC(C)O)c1 (stereo not given)	15
COc1cccc(Nc2nc3ccc(C(=O)c4ccccc4)cc3n3cnnc23)c1	23
O=C(NC1CCCCC1)C(c1cccnc1)N(C(=O)c1ccc(Cl)nc1)C1CCCCC1 (stereo not given)	15
O=c1[nH]n2c(=O)c3c([nH]c2c1N=Nc1cccc(Cl)c1)CCC3	16
Cc1ccc(S(=O)(=O)CCC(=O)OCC(=O)c2ccc(C)c(C)c2)cc1	10
COc1ccc(C(=O)NNC(=O)C2CCN(S(=O)(=O)c3ccc(C)cc3)CC2)cc1	16
COc1ccc(C2c3c(oc4ccccc4c3=O)C(=O)N2c2ccccn2)cc1OC (stereo not given)	16
O=C(CCc1ccccc1)NNC(=O)c1ccccn1	17
CC1CCC2(CC1)NC(=O)N(Cc1nnc(-c3cccs3)o1)C2=O (stereo not given)	13

Later entries:
Molecule	Calb biofilm kill
CC1Nc2nc(NC(=O)C(C)(C)C)[nH]c(=O)c2N(C)C1C (stereo not given)	14
Cc1ccc(NC(=O)Cn2c(=O)oc3ccccc32)cc1	27
CC1CCN(CC(=O)Nc2nn(-c3ccccc3)nc2C(N)=O)CC1	14
CC1=NN(c2nc(-c3ccc(C)cc3)cs2)C(=O)C1N=Nc1cccc(O)c1 (stereo not given)	8
CCC(C)N1C(=S)SC(C)(C)C1N(O)C(=O)NC1CCCCC1 (stereo not given)	23
Cc1cc(C)cc(NC(=O)CCC(=O)Nc2nnc(C(F)(F)F)s2)c1	10
COc1cc([N+](=O)[O-])ccc1NC(=O)Oc1ccc(NC(C)=O)cc1	13
O=C(CSc1ccc(-c2cccc([N+](=O)[O-])c2)nn1)N1CCCCCC1	13
Cc1ccc(N2C(=O)NC(NC(=O)C(C)(C)C)(C(F)(F)F)C2=O)cc1 (stereo not given)	-4
Cc1noc(C)c1COC(=O)C(c1ccccc1)c1ccccc1	17
NC(=O)NCCN1CCN(c2ncc(C(F)(F)F)cc2Cl)CC1	5
COC(=O)CC1c2cc(OC)c(OC)cc2CC(=O)c2cc(OC)c(OC)cc21 (stereo not given)	15
CN1CCN(C(=O)CCc2ncc(C(F)(F)F)cc2Cl)CC1	16
CN1C(=S)N(c2ccccc2)C(=O)/C1=C/c1cccs1	11
CC(=O)Nc1ccc(Oc2cc(NC(C)=O)cc([N+](=O)[O-])c2)cc1	7
CC(c1cccs1)N(Cc1ccco1)C(=S)Nc1ccccc1Cl (stereo not given)	19
CCOC(=O)N/N=C(/C)c1cccc(-n2cnnn2)c1	19
CCc1nnc(NC(=O)CSc2nnc(-c3ccc(O)cc3)n2C)s1	8
CCOc1ccc(CN(CCC#N)C(=S)NC(=O)c2ccccc2)cc1	20
Cc1ccc(O)c(C(=O)c2cc(C(=O)NCCc3ccccc3)c(=O)n(CCc3ccccc3)c2)c1	12
Cc1ncc(CO)c(/C=N/NC(=O)c2ccccc2Br)c1O	1
OC[C@H](O)[C@H](O)[C@@H](O)[C@@H](O)[C@@H]1SC(c2ccccc2)=NN1c1ccccc1	8
Cc1cccc2cc(C#N)c(SCC#N)nc12	12
Cc1ccc(OCC(=O)Nc2ccc(N3CCN(C(=O)c4ccc(C)cc4)CC3)cc2)cc1	11
CCn1nc(C)c(C2C(C#N)=C(N)OC3=C2C(=O)CC(C)(C)C3)c1C (stereo not given)	10
O=C(c1ccc(Cl)cc1)N(Cc1ccccc1F)N1C(=O)CCCC1=O	11
COc1ccc(-n2c(SCC(=O)O)nc3sc4c(c3c2=O)CCC4)cc1	11
NNC(=O)Cn1nc2n(c1=O)-c1ccccc1SC2	13
CCN(CC)C(C)C(=O)NCC1(c2ccccc2)CCOCC1 (stereo not given)	13
CN(Cc1ccccc1)C(=O)c1nc2ccccn2c1CNCCCOc1cccnc1	27
O=C(NNc1c(F)c(F)cc(F)c1F)c1cc2ccccc2oc1=O	-2
O=C(Nc1ccccc1)Nc1ccc(Br)c(Cl)c1	13
O=S(=O)(N/N=C/c1ccc(N2CCOCC2)cc1)c1ccc(Br)cc1	9
CCOc1ccc(NC(=S)NCc2ccco2)cc1	8
CCc1nc2sccc2c(=O)[nH]1	8
CCOC(=O)N1CCN(S(=O)(=O)c2ccc(C(=O)Nc3nnc(C)o3)cc2)CC1	17
CS(=O)(=O)N1CCSC1c1ccc(Br)cc1 (stereo not given)	23
Nn1c(SCc2cn3ccccc3n2)nnc1-c1ccncc1	8
CC(C)Oc1ccc(C(=O)O)cc1	15
O=C(CCCCCNC(=O)c1ccccc1Br)N=Nc1c(O)[nH]c2ccccc12	14

A draw from above in order of SMILES length, rising:
Molecule	Calb biofilm kill
CCOc1ccc(NC(=S)NCc2ccco2)cc1	8
CS(=O)(=O)N1CCSC1c1ccc(Br)cc1 (stereo not given)	23
Nn1c(SCc2cn3ccccc3n2)nnc1-c1ccncc1	8
CCOC(=O)N1CCN(S(=O)(=O)c2ccc(C(=O)Nc3nnc(C)o3)cc2)CC1	17

Additional compounds
Molecule	Calb biofilm kill
CCOC(=O)c1c(CC(C)C)csc1NC(=O)c1ccccc1C(=O)O	22
CCc1ccc(C(=O)CN2C(=O)C(C)N(c3ccc(C)cc3)C2=O)cc1 (stereo not given)	8
COc1ccc(C2c3c(ccc4ccccc34)Oc3ncn4nc(-c5ccco5)nc4c32)cc1 (stereo not given)	7
CCOP(=O)(OCC)C(Nc1ccccc1)c1cccnc1 (stereo not given)	16
Cc1ccc(NC(=O)COC(=O)Cc2ccsc2)cc1S(=O)(=O)N(C)C	21
COc1ccc(C(=O)C2CCCN(S(=O)(=O)c3cccnc3)C2)c(C)c1 (stereo not given)	13
CC(=O)c1ccc(Cc2ccc(C(C)=O)cc2)cc1	18
Cc1ccc(SCC(=O)NC2CC3CCC(C2)N3C)cc1 (stereo not given)	8
Cc1cccc2cc(/C=N/Nc3ccc(C(=O)O)cc3)c(Cl)nc12	24
Cc1ccnc(NC(=O)Cn2ccc([N+](=O)[O-])n2)c1	13
Cc1ccc(/C=N/Nc2cc(C)nc(N3CCOCC3)n2)cc1	22
Cc1ccc(CN2CCN(/N=C\c3cccc([N+](=O)[O-])c3)CC2)cc1	19
O=C(NC(=S)N1CCOCC1)c1ccc([N+](=O)[O-])cc1	14
CS(=O)(=O)N1CCCC(C(=O)Nc2ccc3c(c2)OCCO3)C1 (stereo not given)	27
COc1ccc(/C=C/S(=O)(=O)NCc2ccccc2)cc1OC	11
Fc1ccc(NC(=S)Nc2ccc(Cl)cc2)cc1	-2
CCN(Cc1ccccc1)C(=O)CSc1ccccc1C(=O)O	0
Cc1ccc(NC(=S)N(Cc2cccc(Br)c2)CC2CCC(C(=O)O)CC2)cc1 (stereo not given)	7
O=C(c1cnccn1)N1CCc2ccccc2C1	15
COCC(=O)N(CCc1ccc(OC)c(OC)c1)Cc1cc2cc(C)ccc2nc1Cl	8
Nc1cc(C(=O)OCC(=O)NCc2ccc(F)cc2)ccc1Cl	9
CCN(CC)S(=O)(=O)c1cccc(NC(=O)c2ccc(Br)cc2)c1	11
Cn1cccc1C1C(C#N)=C(N)OC2=C1C(=O)CC(C)(C)C2 (stereo not given)	12
Cc1ccc(/C=N/NC(=O)CNC(=O)c2cccc([N+](=O)[O-])c2C)o1	7
O=C(CCOc1ccccc1)Nc1nnc(-c2ccc3c(c2)OCCO3)o1	5
O=C(O)C(CC1CCCCC1)N1CCS(=O)(=O)CC1 (stereo not given)	14
CCc1cccc2c1NC(=O)C21N2CCCC2C(C(=O)c2ccc3ccccc3c2)C12C(=O)Nc1ccccc12 (stereo not given)	13
CCC1=C(OC(=O)N(CC)CC)N2C(=O)OC(=NCc3ccccc3)[C@]2(C)[C@H]2C1=CC[C@H]1C(=O)NC(=O)[C@H]12	12
C[C@@H](C(=O)Nc1ccc2ccccc2c1)[C@H]1C[C@]1(C)[C@H](NC(=O)c1cnccn1)c1ccccc1	5
CC1(C)CC(=O)C([N+](=O)[O-])=C(NCCCO)C1	18
CC(=O)N1CCN(c2ccccc2NC(=O)c2ccc(-c3cccc([N+](=O)[O-])c3)o2)CC1	5
CCc1ccc(NC(=O)c2ccc3c(=O)n4c(nc3c2)CCCCC4)cc1	17
O=C(COC(=O)c1cccc(O)c1)Nc1ccc(OC(F)F)cc1	5
[O-]/C(=C(\C(=S)NCc1ccc2c(c1)OCO2)[n+]1ccccc1)c1ccc(Cl)s1	14
O=C(CO/N=C/c1ccc(OC(F)F)cc1)NCc1ccc(F)cc1	13
CCOc1ccccc1C(=O)NCC(=O)NCCCc1ccccc1	26
O=C(Nc1nc2c(F)cc(F)cc2s1)c1ccccn1	7

Some of the compounds tested, so the mix of outcomes need not match the whole.
